WNV protease inh – blocks West Nile virus NS2B-NS3 protease activity | AID 577 | z-score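 (tested at a level between 10 and 100 µM)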 | WNV NS2B-NS3 protease, fluorogenic substrate Ex360/Em465; active compounds read low | hit rate 0.18% among 65,000;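 active = z-score at -3 or under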;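 note: score is relative to mean and spread of the compound wells of a plate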
Target sequence (P06935 1371-1501 limits assumed): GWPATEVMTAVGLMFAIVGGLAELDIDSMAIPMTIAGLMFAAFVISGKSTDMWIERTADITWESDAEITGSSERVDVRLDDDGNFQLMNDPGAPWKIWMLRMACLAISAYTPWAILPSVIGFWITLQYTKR
Target sequence (P06935 1502-1679 limits assumed): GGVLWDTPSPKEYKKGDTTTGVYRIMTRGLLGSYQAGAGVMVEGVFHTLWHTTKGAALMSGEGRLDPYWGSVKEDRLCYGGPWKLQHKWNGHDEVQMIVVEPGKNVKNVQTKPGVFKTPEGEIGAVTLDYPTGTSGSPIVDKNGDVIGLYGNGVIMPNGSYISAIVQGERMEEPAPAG
MT1-MMP promoter – MT1-MMP gene expression reporter suppression – cell-based, luciferase reporter, luminescence (AID 618). MT1-MMP promoter luciferase reporter cells, luminescence. calls from a first round at 10 µM; hits with a dose series show EC50 in µM. hit rate 0.62% among 87,000;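 active = over half of the reporter light lost at 10 µM or EC50 under 50 µM; inactive = the rest and hits that failed the dose series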;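 note: actives suppress MT1-MMP promoter-driven transcription so potencies describe inhibitors; HT1080 fibrosarcoma cells; overnight exposure; toxic or luciferase-blocking compounds were not removed from the actives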
Hsc70 ATP site – small molecules displacing fluorescent ligand from Hsc70 – biochemical, fluorescence polarization, primary screen (AID 568). Hsc70 fluorescence polarization, probe displacement; higher % means a stronger effect; strong numbers were not always called active. one-dose displacement, % at 20 µM; IC50 in µM for titrated hits. 83,000 tested, under 10 active;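 active = displacement above 50% without optical interference and an IC50 on retest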;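 note: ATPase domain with a fluorescein-tagged ATP probe; 0% = vehicle and 100% = excess ADP; read after one hour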
The depositor's hits bear a star; i = inactive; nt = not tested or not shown.

entry	SMILES	WNV protease inh	MT1-MMP promoter	Hsc70 ATP site
1	O=C(O)CCCC(=O)Nc1cccc(-c2nc3ccccc3[nH]2)c1	-1.09	i	-1.0%
2	CNCC/C=C1/c2ccccc2CSc2ccccc21	nt	i	-0.2%
3	Cc1cc(N2CCCCC2)nc(SCC(=O)c2ccccc2)n1	2.93	i	7.3%
4	O=C1C(=O)N(CCN2CCOCC2)C(c2ccccn2)/C1=C(/O)c1ccc(Cl)cc1 (stereo unspecified)	-0.7	i	-1.6%
5	CCOC(=O)C1C(=O)CC(C)(O)C(C(=O)OCC)C1c1ccccc1OC (stereo unspecified)	0.74	i	-1.5%
6	O=C(NCCN1CCOCC1)c1cc(-c2ccccc2)on1	0.3	i	-5.4%
7	CCSc1nc(N2CCOCC2)c2c(c1C#N)CCCC2	-1.12	i	-0.1%
8	C/C=C(\C)CN1CCN(c2ccc(C)cc2)CC1	nt	i	-5.2%
9	CCOc1ccc(Nc2oc(-c3ccccc3Cl)nc2C#N)cc1	nt	i	-0.9%
10	CCOC(=O)c1c(N)sc2c(OCC)c(Br)ccc12	nt	i	1.3%

Nos. 9 through 10, quoted:
entry	SMILES	WNV protease inh	MT1-MMP promoter	Hsc70 ATP site
9	CCOc1ccc(Nc2oc(-c3ccccc3Cl)nc2C#N)cc1	nt	i	-0.9%
10	CCOC(=O)c1c(N)sc2c(OCC)c(Br)ccc12	nt	i	1.3%

Other results
entry	SMILES	WNV protease inh	MT1-MMP promoter	Hsc70 ATP site
11	CCc1c(O)nc(SCC(=O)NCc2ccco2)[nH]c1=O	-1.46	i	-2.6%
12	CCS(=O)(=O)NCC(c1cccnc1)N1CCN(c2ccccc2F)CC1 (stereo unspecified)	0.09	i	6.6%
13	COc1ccc(CCNC(=O)C2CCCN(c3nn4c(=O)cc(C)nc4s3)C2)cc1OC (stereo unspecified)	-0.19	i	-5.1%
14	O=C(O)Cn1c(CC(=O)N2CCCC2)nc2ccccc21	0.34	i	-7.2%
15	CCC(=O)NCC(=O)OCC(=O)c1ccccc1	nt	i	0.4%
16	COc1ccc(-c2nc(C#N)c(N3CCc4ccccc4C3)o2)cc1OC	nt	i	-1.3%
17	COc1ccccc1-n1c(SCC(=O)NC(C)(C)C)nc(O)c(Cc2ccccc2)c1=O	nt	i	-3.2%
18	CC(OC(=O)CNC(=O)C12CC3CC(CC(C3)C1)C2)C(=O)Nc1ncc(Cl)cc1Cl (stereo unspecified)	nt	i	8.4%
19	Cc1cc(C)cc(N2C(=O)N(c3ccccc3C)C3CS(=O)(=O)CC32)c1 (stereo unspecified)	1.32	i	-1.8%
20	CCCCN1C[C@H](O)[C@@H](O)[C@H](O)[C@H]1CO	0.66	i	-1.9%
21	COc1ccc(OC)c(NC(=O)c2cc(-c3cc(Cl)ccc3O)n[nH]2)c1	0.48	i	-2.0%
22	Cc1ccc(-n2nc(C(=O)N3CCN(C)CC3)c3c4ccccc4n(C)c3c2=O)cc1	-0.66	i	-1.2%
23	Nc1nnc(-c2ccc(F)cc2)s1	-0.8	i	-0.8%
24	CCN(CC)S(=O)(=O)c1ccc(S(=O)(=O)Nc2ccc(C(=O)N3CCCC3)cc2)cc1	-0.34	i	-2.6%
25	COC(=O)CSc1nnc(CNc2ccc(OC)cc2)n1C	-0.28	i	-5.2%
26	COc1ccc(CC(=O)OCC(=O)Nc2ncc(Cl)cc2Cl)cc1	-0.94	i	-2.0%
27	CN(C)c1ccc(C(=O)NCC2CCCO2)cc1 (stereo unspecified)	nt	i	-2.2%
28	CCCCC(=O)Nc1ccc(NC(=O)C(C)C)cn1	-0.53	i	6.0%
29	CC(=O)[C@H]1CC[C@H]2[C@@H]3CCC4=CC(=O)CC[C@]4(C)[C@H]3[C@H](O)C[C@]12C	0.86	i	-1.9%
30	Cc1ccc(Cc2cncc(O)c2)cc1S(=O)(=O)O	-0.92	i	2.7%
31	COc1ccc(C(=O)N2CC(=O)N(CCc3ccccc3)C(=O)C2)cc1OC	-0.3	i	-12.3%
32	COc1cc2c(cc1OC)-c1cc(OCc3cccnc3)nc(=O)n1CC2	2.91	i	5.2%
33	O=C(CSc1ccc2nnc(-c3cccc(F)c3)n2n1)NCC1CCCO1 (stereo unspecified)	1.11	i	-3.9%
34	CC1=C(C#N)C(c2cccnc2)C2=C(CCCC2=O)N1 (stereo unspecified)	nt	i	0.3%
35	c1ccc(Sc2ncnc3c2oc2ccccc23)nc1	-0.98	i	4.9%
36	CC1=C(C(=O)OCC(C)C)C(c2cccc(F)c2)N2C(=O)C(C)SC2=N1 (stereo unspecified)	-0.43	i	-2.6%
37	CCOC(=O)C1CCCN(c2c(Nc3cccc(C)c3)c(=O)c2=O)C1 (stereo unspecified)	2.17	i	-0.3%
38	CCC1CCCCN1C(=O)c1cc2cc(Br)ccc2oc1=O (stereo unspecified)	-1.16	i	-2.5%
39	Cc1cccc(NS(=O)(=O)c2ccccc2)n1	-1.2	i	5.8%
40	CC(=O)N1CCN(C(=O)CC2OC(=O)c3ccccc32)CC1 (stereo unspecified)	nt	i	1.6%
41	CCNC(=O)NC(=O)C(C)Sc1nc2ccccc2n1CC(C)C (stereo unspecified)	nt	i	-4.2%
42	C/C(=N\OCC(=O)N/N=C/c1ccccc1O)c1cccs1	nt	i	2.5%
43	CCOC(=O)c1sc2nc(NC(=O)C3CCCCC3)sc2c1C	0.21	i	-2.0%
44	CCCc1nnc(SCC(=O)N2CCCCC2C)n1CCCOC (stereo unspecified)	nt	i	-4.4%
45	Cc1nc2cc(C(F)(F)F)ccc2n1C1CCN(C(=O)N2CCOCC2)CC1	-0.88	i	0.0%
46	Cc1ccc(C(=O)Nc2ccc3cn[nH]c3c2)cc1S(=O)(=O)N1CCCCC1	nt	i	1.6%
47	Cn1ncc(Cl)c1C(=O)Nc1cccnc1	-0.41	i	8.2%
48	O=C(Nc1nc2ccc(S(=O)(=O)N3CCCCC3)cc2s1)C1CCCO1 (stereo unspecified)	-0.49	i	4.8%
49	CC(c1nnc(SCC(=O)c2c(N)n(C)c(=O)n(C)c2=O)n1-c1ccc(Cl)cc1)N(C)C (stereo unspecified)	-0.41	i	-1.9%
50	COc1ccc(CCN(C(=O)c2ccccc2)C2=CC3CCC(C2)N3C)cc1OC (stereo unspecified)	-0.29	i	-10.3%
51	CCc1ccc2oc(-c3cccc(NC(=O)c4cccnc4)c3)nc2c1	-0.29	i	-6.4%
52	O=C(NCCN1CCOCC1)[C@H](Cc1ccccc1)N1C(=O)c2ccccc2C1=O	-1.19	i	3.9%
53	Cc1nc2ccc(CCO)cc2s1	-0.09	i	6.6%
54	COc1ccc(CN2C(=O)C3C4C=CC(C4)C3C2=O)cc1 (stereo unspecified)	0.45	i	-4.3%
55	Cc1noc(C)c1C(=O)Nc1cccnc1	-1.11	i	6.9%
56	O=C1C2CCCN2C(c2ccccc2F)N1c1ccc(Cl)cc1 (stereo unspecified)	-0.73	i	-1.2%
57	COc1ccccc1N1CCN(S(=O)(=O)c2cccc3nsnc23)CC1	-0.19	i	-4.0%
58	O=C(c1ccc(F)cc1)c1ccc(N2CCCC2)cc1	0.79	i	-3.6%
59	CCCN(CCC)S(=O)(=O)c1ccc(NC(=O)Cc2cccs2)cc1	nt	i	-3.4%
60	Cc1ccc(C(=O)Nc2nnn(C)n2)cc1	0.78	i	-9.2%

Other entries follow.
entry	SMILES	WNV protease inh	MT1-MMP promoter	Hsc70 ATP site
61	O=C1CC(N2CCC(c3nc4ccccc4o3)CC2)C(=O)N1c1cc(Cl)cc(Cl)c1 (stereo unspecified)	nt	i	-2.6%
62	COc1ccc(S(=O)(=O)N(CC(=O)O)c2ccc(C)cc2)cc1	-0.3	i	-0.6%
63	COC(=O)c1ccc(CSc2nc3scc(-c4cccs4)c3c(=O)[nH]2)o1	-0.68	i	-20.4%
64	CN1CCN(CC(=O)Nc2c(C(=O)C3CC3)oc3ccccc23)CC1	-0.68	i	-1.7%
65	NCCOc1ccccc1Cc1ccccc1	nt	i	-0.7%
66	CC1(C)Cc2c(C#N)c(SCC(=O)c3ccccc3)nc(N3CCOCC3)c2CO1	1.58	i	4.8%
67	CSC1=NCCN1C(=O)Cc1ccc(Cl)cc1	-0.92	i	4.1%
68	CC(O)COc1ccc(/C(=N/O)c2ccccc2)cc1 (stereo unspecified)	0.57	i	-4.3%
69	COc1ccc(C(=O)COC(=O)CCn2nnc(-c3cccc(O)c3OC)n2)cc1	0.62	i	2.0%
70	C=CCn1c(SCC(=O)c2cc(C)n(C(C)COC)c2C)nc2sc(C)c(C)c2c1=O (stereo unspecified)	-0.99	i	-3.0%
71	O=C(Nc1ccccc1F)c1ccncc1	1.83	i	6.0%
72	CC1=CC(C)(C)Nc2ccc(OC(=O)CN3C(=O)CCC3=O)cc21	-0.13	42µM*	0.1%
73	CCCCOc1ccc(S(N)(=O)=O)cc1	-1.48	i	0.1%
74	CCN(CC)S(=O)(=O)c1ccc(C(=O)Nc2ccc3c(c2)OCCO3)cc1	1.07	i	1.5%
75	CCCCn1nnc(NC(=O)Cc2ccc(Cl)cc2)n1	0.75	i	-0.4%
76	COc1ccc2cc(CN(C(=O)Nc3ccccc3OC)C3CCCC3)c(=O)[nH]c2c1	-0.71	i	2.0%
77	Cn1c(CCNC(=O)c2ccccc2F)nnc1SCc1nc2ccccc2c(=O)[nH]1	-0.59	i	-2.7%
78	Cc1csc2nc(CNS(=O)(=O)c3ccc4c(c3)CCCC4)cn12	-0.87	i	-3.2%
79	Cc1ccc(C)n1-c1ncn[nH]1	0.44	i	2.9%
80	Cc1ccccc1OCC(=O)N/N=C/c1ccco1	nt	i	-1.6%
81	COc1ccccc1NC(=O)Oc1ccc(C(C)=O)cc1	nt	i	0.8%
82	CC(C)N1CC(C(=O)O)CC1=O (stereo unspecified)	nt	i	1.9%
83	CCCc1nc2sc3c(SCC(=O)NCc4ccco4)ncnc3c2c2c1CCC2	0.01	i	-10.7%
84	O=C(CSc1nc2ccccc2o1)Nc1nc2c(s1)CCCC2	1.53	i	-34.0%
85	CC(=O)c1c(C)c2c(n1CCN(C)C)CCCC2	1.2	i	-3.1%
86	CC(C)(C)NC(=O)NC(=O)COC(=O)c1cc(=O)[nH]c2ccccc12	nt	i	-1.2%
87	Cc1c2cnn(-c3ccccc3)c(=O)c2c(C)n1CCCC(=O)N1CCN(C)CC1	0.04	i	4.0%
88	COc1cc(Cl)cc(NC(=O)CCN2CCN(C)CC2)c1	-0.03	i	-5.5%
89	CN1CCN(S(=O)(=O)c2ccc3c4c(cccc24)C(=O)N3)CC1	0.11	i	-1.0%
90	c1ccc2c(c1)NC(CN1CCOCC1)CO2 (stereo unspecified)	1.16	i	-0.3%
91	COc1ccc(OC)c(S(=O)(=O)N2CCC(C(=O)Nc3cccc(C)c3)CC2)c1	nt	i	5.1%
92	COc1cc(OC)cc(C(C)=O)c1	2.2	i	-4.3%
93	CCCN(Cc1cc2cccc(C)c2[nH]c1=O)S(C)(=O)=O	nt	i	-2.3%
94	CC(C(=O)c1ccccc1)n1c(N2CCOCC2)nc2c1c(=O)n(C)c(=O)n2C (stereo unspecified)	0.04	i	6.8%
95	CC1=C(C(N)=O)C(c2ccc3c(c2)OCO3)n2nc(-c3cccc(C)c3)nc2N1 (stereo unspecified)	-0.08	i	8.4%
96	CCOC(=O)CSc1nnc([C@H](Cc2ccccc2)NC(=O)OC(C)(C)C)o1	1.03	i	-1.4%
97	Cc1csc(NC(=O)c2cc3c(s2)-c2ccccc2OC3)n1	0.03	i	1.5%
98	O=C(NCc1ccncc1)C1COc2ccccc2O1 (stereo unspecified)	nt	i	-4.0%
99	CCn1c(C(O)c2ccc3c(c2)OCO3)nc2ccccc21 (stereo unspecified)	-1.83	i	2.8%
100	CC(=O)c1cccc(NC(=O)Cc2cccs2)c1	-0.19	i	-10.5%
101	CC(=O)Nc1ccc(S(=O)(=O)NC(=O)C23CC4CC(CC(C4)C2)C3)cc1	1.06	i	8.0%
102	CCOc1ccc(NC2=NC(C)(C)N=C(N)N2)cc1	-0.61	i	-1.5%
103	CC1=CCC(C(=O)N/N=C/c2cccs2)C(c2ccc(F)cc2)C1 (stereo unspecified)	nt	i	2.6%
104	CCC(=O)c1cc2c(cc1NC(=O)C(C)C)OCCO2	-0.04	i	1.8%
105	COc1ccc(C(CNC(=O)c2cccnc2SC)N2CCOCC2)cc1 (stereo unspecified)	0.12	i	3.9%
106	CCS(=O)(=O)N1Cc2ccccc2CC1C(=O)OCC(=O)Nc1ccc(C)cc1 (stereo unspecified)	-0.98	i	-11.8%
107	COc1ccc(OC)c(S(=O)(=O)N2CCN(c3ccccn3)CC2)c1	nt	i	-6.1%
108	O=C(NCC(=O)N(Cc1cccs1)C(C(=O)NC1CCCC1)c1ccco1)c1cccs1 (stereo unspecified)	-0.72	i	34.3%

Record cards, as listed above.
`COc1ccc(C(CNC(=O)c2cccnc2SC)N2CCOCC2)cc1` (stereo unspecified) across the screens: WNV protease inh = 0.12; MT1-MMP promoter = i; Hsc70 ATP site = 3.9%
`O=C(NCC(=O)N(Cc1cccs1)C(C(=O)NC1CCCC1)c1ccco1)c1cccs1` (stereo unspecified) across the screens: WNV protease inh = -0.72; MT1-MMP promoter = i; Hsc70 ATP site = 34.3%
`CC1=CCC(C(=O)N/N=C/c2cccs2)C(c2ccc(F)cc2)C1` (stereo unspecified) across the screens: WNV protease inh = nt; MT1-MMP promoter = i; Hsc70 ATP site = 2.6%

Screening results deposited in PubChem by several laboratories.

Only part of the results is shown (hit frequency here may not be typical).
